GIV-Gai inh: blocks GIV peptide binding to rat Galpha-i3. 210,000 tested, 0.42% active. P08753. Galpha-i3/FITC-GIV peptide fluorescence polarization, 90 min; active compounds read low; scaled: aluminum fluoride 0%, vehicle 100%. percent of control (FP), % (concentration not given with the values);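 active = replicate mean at 85% of control or lower, very high polarization wells dropped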;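 also: wells of about 15 µL received 100 nL stock; the first replicate is given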
Target sequence (P08753 whole entry, looked up): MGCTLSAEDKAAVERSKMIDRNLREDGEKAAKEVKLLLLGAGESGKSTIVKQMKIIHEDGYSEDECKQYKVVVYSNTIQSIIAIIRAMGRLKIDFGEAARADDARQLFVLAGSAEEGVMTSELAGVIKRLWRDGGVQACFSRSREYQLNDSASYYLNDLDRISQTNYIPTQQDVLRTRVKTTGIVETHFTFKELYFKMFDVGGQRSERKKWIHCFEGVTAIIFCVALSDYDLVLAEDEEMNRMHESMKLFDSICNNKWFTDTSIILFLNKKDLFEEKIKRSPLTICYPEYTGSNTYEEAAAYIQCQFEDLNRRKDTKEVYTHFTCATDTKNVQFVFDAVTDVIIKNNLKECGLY
Sa growth inh: blocks Staphylococcus aureus growth | S. aureus RN4220 growth, OD600, 20 h, 42 °C; active compounds read low | relative growth, % (test concentration not listed) | 170,000 tested, 0.53% active;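 active = growth at 42 °C up to 50% and 20 or more points under that at 30 °C, or under 10% at both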;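 also: 300 nL library stock went into each well; scaled to the means of positive and negative controls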
HCMV UL50-53 inh: disrupts HCMV UL50-UL53 complex binding; HTRF UL50-UL53 interaction, normalized percent inhibition; inhibition, % (test concentration not listed); 190,000 tested, 0.15% active; AID 1918969;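 active = both replicates at 50% or more, plus weaker picks with an unusually low signal ratio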;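 also: stock transfer was 100 nL into about 20 µL; 0% = negative control wells and 100% = wells with untagged competitor protein; inactives centre near -12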
Sa growth inh second temp: recorded beside Sa growth inh, whose call it bears; relative growth, %; measured here: growth at 30 °C;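 optical density after 20 h as mean of two plates; 100% = untreated growth and lower means inhibition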
Numbers without * were called inactive; x = no result given; & = joins results of further samples.

Below each compound: GIV-Gai inh	Sa growth inh	Sa growth inh second temp	HCMV UL50-53 inh
C#CC1(O)c2ccccc2CCc2ccccc21
    109	87	71	-37
COc1ccc(Cc2nc3ccc(C(=O)NCc4ccccc4C)cc3o2)cc1
    101	90	89	x
Cc1ccc(CNC(=O)CC2Oc3ccccc3NC2=O)cc1 (stereo not given)
    100	113	85	-22
O=C(NCc1ccccc1)Nc1cccc(-c2noc(C3CCC3)n2)c1
    110	x	x	-14
Cc1cc(NCc2ccccn2)n2nc(C(F)(F)F)c(-c3ccccc3Cl)c2n1
    105	x	x	11
COc1cccc(Cn2c(C)c(CNCc3cccc(C)c3)c(C(=O)O)c2C)c1
    107	81	79	5
COc1ccccc1NS(=O)(=O)c1cc2c(cc1Cl)NC(=O)CO2
    106	119	97	x
Cc1ccc(NC(=O)N2CCC(N3CCN(Cc4ccccc4)C(=O)C3=O)CC2)cc1Cl
    101	133	85	x
O=C(c1cccc(Br)c1)N1CCN(c2cnn(-c3ccccc3)c(=O)c2Cl)CC1
    104	117	95	-20
Cc1ccc(NC(=O)CCc2c(C)nn(-c3ccc(N4CCOCC4)nn3)c2C)cc1F
    102	85	107	x
CCNc1oc(-c2ccc(S(=O)(=O)N3CCC(C)CC3)cc2)nc1C#N
    106	x	x	8
CCCn1c(C)ccc(-c2noc(CCCC(=O)NCc3ccc(C)cc3)n2)c1=O
    108	x	x	-43
CN(C)Cc1ccc(CN)cc1
    102	88	96	-15
CCN(C(=O)Cn1cc(S(=O)(=O)Cc2ccc(C)cc2)c2ccccc21)c1ccccc1
    117	x	x	4
O=C1N=c2ccccc2=C1c1c(O)[nH]c2ccc(Cl)cc12
    107	49*	87*	-1
COc1ccc(CCNC(=O)Cn2sc3nc(C)cc(C)c3c2=O)cc1OC
    114	98	71	0
CCCS(=O)(=O)NCc1ccc(C(=O)O)cc1
    x	81	93	-19
Cc1cc(C(=O)CSc2n[nH]c(-c3cccs3)n2)c(C)n1Cc1ccco1
    x	111	90	-34
O=C(CCS(=O)(=O)c1ccccc1)NCc1ccc2c(c1)OCO2
    x	100	93	5
Cc1ccc(C2CC(=O)N3CN(CCc4ccccc4)CSC3=C2C#N)cc1 (stereo not given)
    112	96	69	-32
CCC(C)NC(=O)C1CCN(S(=O)(=O)c2cn(C(C)C)cn2)CC1 (stereo not given)
    106	x	x	-25
COc1cccc(OCc2nc3ccccc3n2C)c1
    100	119	82	-23
O=C(COC(=O)C1(c2ccccc2F)CCCC1)c1cccs1
    x	116	59	-33
CCOc1ccc(CCNC(=O)c2ccc(CSCc3ccccc3C)o2)cc1OCC
    108	104	97	x
Cc1ccc(N2C(=O)c3ccccc3C2C(=O)c2ccc(C)cc2O)cc1 (stereo not given)
    100	90	96	49
CCS(=O)(=O)N1CCN(S(=O)(=O)c2ccc(C(C)C)cc2)CC1
    104	109	105	-17
CCOC(=O)c1ccc(NC(=O)C2Oc3ccccc3OC2C)cc1 (stereo not given)
    102	x	x	-11
CC(=O)Oc1ccccc1-n1c(C)nc(=O)c(-c2ccccc2)c1C
    x	128	84	-18
NC(=S)NC1CC2CC1C1C=CCC21 (stereo not given)
    102	88	85	-32
CNC(=O)NC(=O)C(C)Sc1nc2ccc(C)cc2[nH]1 (stereo not given)
    x	105	98	-6
Cc1oc(-c2cccc(Cl)c2)nc1CSc1nc2ncccc2[nH]1
    100	89	90	x
Clc1ccc(C(c2ccccc2Cl)C(Cl)Cl)cc1 (stereo not given)
    95	87	76	-10&-10&-18
O=C(NC1CCCC1)N1CCC(n2cnc3cccnc32)CC1
    105	x	x	10
Cc1cc(=O)c2cc(C(=O)Nc3ccccc3C)ccc2[nH]1
    100&103	106	86	-12&-3
O=C(NCc1ccco1)c1ccc2c(c1)OCCCO2
    95	95	86	-16
COc1ccccc1/C=C/C(=O)Nc1nc(N)n(-c2ccccc2)n1
    106	95	79	x
COc1ccc(Cn2cccc2C2=NCCO2)cc1
    100	114	96	-1
COc1ccc(-c2noc(CN(C)C(=O)N3c4ccccc4Sc4ccccc43)n2)cc1OC
    103	91	76	-6
Cc1ccc(S(=O)(=O)N2C(=O)CCC2C(=O)NCc2nc(-c3ccc(Cl)cc3)no2)cc1 (stereo not given)
    91	x	x	-3
CCOc1ccc2ccccc2c1C=Nc1ccccc1
    x	98	105	-43
CCn1c(SCC(=O)NCc2ccccc2)nc2c([nH]c3ccccc32)c1=O
    104	115	89	8
COC(=O)c1cccc(OCC(O)Cn2ccnc2)c1 (stereo not given)
    101	98	102	-5
CCCCOc1cccc(NC(=O)c2cccc(C(=O)Nc3cccc(OCCCC)c3)c2)c1
    103	101	94	-34
Cc1ccc(C)c(N2CCN(C(=O)Cn3nc(Cc4cccnc4)c4ccccc4c3=O)CC2)c1
    101	116	78	-10
COCCNC(=S)c1ccc(OC)cc1
    111	102	89	-2
O=C(O)/C(S)=C\C=C\c1ccccc1
    x	45	28	0
CN1C(=O)/C(=C/c2cn(CC(=O)N3CCCC3)c3ccccc23)C(=O)NC1=S
    95	118	69	-5
O=S(=O)(c1ccccc1)c1nnn2c1nc(N1CCOCC1)c1ccccc12
    106	x	x	-25
NC(=O)c1ccc(-c2ccc(C(N)=O)cc2)cc1
    98	80	80	-13
CC(C)C(=O)Nc1sc2c(c1C(=O)O)CCCC2
    105	103	75	-18
O=C1Nc2ccccc2/C1=C\c1ccc(N2CCOCC2)cc1
    x	103	97	-18
COc1cccc(NC(=O)C2CCN(S(=O)(=O)c3cc(Br)cc4c3N(C(C)=O)CC4)CC2)c1
    102	93	88	-21
N#Cc1ccc(CN2CCCC2)cc1
    x	112	95	-26
COc1ccccc1NC1=NC(C)(C)N=C(N)N1
    x	99	90	-8
O=C(Sc1ccccc1)c1csc(-c2cccnc2)n1
    107	101	88	0
CCc1ccc(OCc2nnc(SCC(=O)NC)n2CC(C)C)cc1
    x	99	87	-3
CCn1nnc2cc(C(=O)Nc3ccc4c(c3)CCC4)ccc21
    x	83	100	-14
CC(=O)N1CCc2c(sc3c2c(=O)n(-c2ccccc2C)c(=O)n3CC(=O)Nc2ccccc2)C1
    109	100	85	-23
CC(C)Oc1ccc(CCN=C(N)N=C(N)N)cc1Cl
    99	94	94	-31
O=C1NCCN/C1=C/C(=O)c1ccc(Br)cc1
    100	112	95	x

Following part.
Below each compound: GIV-Gai inh	Sa growth inh	Sa growth inh second temp	HCMV UL50-53 inh
COc1ccc(-c2csc(Nc3ncccn3)n2)cc1
    94	86	95	-8
CC1CCCC(C)N1C(=O)COC(=O)c1ccc[nH]c1=O (stereo not given)
    x	104	96	4
CCOC(=O)c1sc(N2CCCC2)c2c1CC(C)(C)CC2=O
    101	102	79	-10
COCCN(CCOC)S(=O)(=O)c1ccc(C(=O)Nc2nnc(-c3ccccc3Cl)s2)cc1
    102	x	x	-16
O=C(Nc1nc2ccc(S(=O)(=O)N3CCCC3)cc2s1)c1ccncc1
    119	104	94	0
CCCN(CCC)c1nc(NC2CCN(C(=O)OCC)CC2)nc(OC)n1
    105	101	82	-4
Cc1ncc(COC(=O)C(C)C)c2cc(C(=O)Nc3ccc(OCc4ccccc4)cc3)c(=O)oc12
    106	x	x	-11
CC(C)c1ccc(-c2nc(C(N)=O)c3c(n2)n(-c2ccc(F)cc2)c(=O)n3C)cc1
    105	x	x	-1
O=C(CCCSc1ccccc1)Nc1cccc(CO)c1
    x	92	93	-24
COc1ccc(CCNC(=O)/C(C#N)=C/c2ccc[nH]2)cc1OC
    108	96	97	-4
Cc1ccc2c(C)c(-c3ccccc3)c(=O)oc2c1
    x	126	83	-13
Cc1cccc(-c2nc3sc(N(C)CC(=O)NCCc4c[nH]c5ccccc45)nn3c2NC(C)(C)C)c1
    102	x	x	-28
CC(Sc1nnc(-c2cc3ccccc3o2)n1-c1ccccc1)C(=O)O (stereo not given)
    105	116	96	-13
Cc1ccccc1C(=O)NCCc1csc2nc(-c3ccccc3C)nn12
    104	x	x	-8
O=S(=O)(/C=C/c1ccccc1)NNc1ccccc1
    104	84	78	-37
O=C(c1cc(S(=O)(=O)N2CCCCC2)c(Cl)cc1Cl)N1CCCCC1
    x	112	93	-5
O=C1CC(c2ccc(Cl)cc2)=Nc2ccccc2N1
    102	x	x	-28
CC(C)C(=O)N(c1ccc(Cl)cc1)C1C=CS(=O)(=O)C1 (stereo not given)
    106	100	95	-20
CC1CCc2noc(NC(=O)c3ccc(Br)cc3)c2C1 (stereo not given)
    102	x	x	-24
Cc1ccc(Cl)cc1-n1ncc2c(NCc3ccc(F)cc3)ncnc21
    104	103	93	x
Cc1oc(C)c(C(=O)Nc2ccc(CC(=O)O)cc2)c1C(=O)Nc1ccc(CC(=O)O)cc1
    102	102	100	-2
O=c1oc2cc(Oc3ncccn3)ccc2c2c1CCCCC2
    x	84	93	5
CC1CCc2c(sc3nc(CSc4n[nH]c(N)n4)[nH]c(=O)c23)C1 (stereo not given)
    x	94	64	-13
O=C(NN1C(=O)c2ccccc2C1=O)c1cccc(Cl)c1
    103	88	82	-29
Cc1ccc(S(=O)(=O)N2CCc3cc4cccc(C)c4nc32)cc1
    103	x	x	-6
CCOC(=O)C(C)(N)Cc1ccc(O)c(O)c1 (stereo not given)
    x	96	83	-57
Cn1cc2nc(SCC(=O)Nc3ccc(Cl)cc3F)n(CC3CC3)c(=O)c2n1
    105	x	x	-20
CCc1cccc(NC(=O)c2nnn(Cc3ccc(SC)cc3)c2N)c1
    103	96	78	-10
CCc1nnc2c(Nc3ccccc3OC)nc3ccccc3n12
    96	x	x	-14
O=C(Nc1ccc(Cl)cc1)c1cn(-c2ccccc2)nc1-c1cccnc1
    x	116	84	-25
COc1ccc(NCc2cc3cc4c(cc3n(CC(=O)Nc3ccccc3)c2=O)OCO4)cc1
    107	102	102	x
COc1ccc(-c2cc(C(F)(F)F)n3nc(C(=O)NCc4cccnc4)c(Cl)c3n2)cc1OC
    98	x	x	-33
Cc1ccc(CSCC(=O)NCc2ccc3c(c2)OCO3)cc1
    100	118	89	10
Fc1ccccc1N1CCN(c2nc3ccccc3c3nc(-c4ccccc4)nn23)CC1
    103	100	86	-23
O=C(Cn1nc(-c2ccccc2)ccc1=O)NCCCN1CCc2ccccc2C1
    103	99	88	-6
Cc1nc2ccccc2c(=O)n1CCO
    98	102	94	-7
Cc1cc(OCC(=O)NC(Cc2c[nH]c3ccccc23)C(=O)O)cc(C)c1Cl (stereo not given)
    109	152	95	x
Cc1cccc(N2CCN(c3cc(C(=O)O)c4cc(NS(=O)(=O)c5ccc(F)cc5)ccc4n3)CC2)c1C
    105	x	x	-20
COc1ccc(NC(=O)Nc2nnc(SCc3cc(=O)n4oc(C)cc4n3)s2)cc1
    104	x	x	-18
Cc1cccc(C(=O)Nc2cccnc2)c1
    96	91	85	2
O=C(COc1ncnc2ccccc12)Nc1ccc(Cl)cc1
    x	83	91	-24
O=C(O)CCN1N=C(c2ccccc2)/C(=C\c2cn(-c3ccccc3)nc2-c2cc3ccccc3o2)C1=O
    x	95	94	12
